# Bioassay records as filed in PubChem BioAssay.
# BJeLR viab HTS: lowers viability of BJeLR cells. BJeLR fibroblasts viability, CellTiterGlo ATP luminescence, 48 h; HRASV12, hTERT and SV40 LT/ST transformed. AID 2275. 30,000 compounds, 0.64% hits. viability loss activity score, % (test concentration not listed); in the data active = viability loss activity score above about 50%; about a fifth of its hits are not listed in these tables;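 note: higher score means fewer live cells and less ATP luminescence; stock transfer was 50 or 100 nL into about 30 µL; 0% = vehicle wells and 100% = a reference killing control; one replicate is shown; the record names a cut of 85%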
# A1 inh: A1 inhibition. AID 2241. MEF A1-2A-BIM cells, caspase-Glo luminescence, 3 h; percent of clofoctol signal, DMSO as zero. caspase activation, % (test concentration not listed). 21,000 compounds, 0.51% hits;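 active = most replicate scores above 10, or exactly half above 10 with mean activity above 10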;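 note: effector caspase 3 and 7 activity cleaving a DEVD luciferin substrate; 50 nL library stock added to about 30 µL; numbers are from one replicate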
# * hit, by the source's call; · = no result given.
SMILES,BJeLR viab HTS,A1 inh
C[C@@H]1CC[C@]2(C(=O)OC3OC(CO)C(OC4OC(CO)C(O)C(O)C4O)C(O)C3O)CC[C@]3(C)C(=CCC4[C@@]5(C)CC[C@H](O)[C@](C)(C(=O)O)C5CC[C@]43C)C2[C@]1(C)O (stereo partly specified),-9.2,0.3
COc1ccccc1-n1cc(C(=O)NCC(=O)NCC2COc3ccccc3O2)c2ccccc2c1=O (stereo unspecified),-1.3,1.5
CC(C)CCNC(=O)c1cn(CC(C)C)c(=O)c2c1c1ccccc1n2C,-1.8,·
CNC[C@@H]1Oc2ccc(NC(=O)CCC(F)(F)F)cc2C(=O)N([C@H](C)CO)C[C@H]1C,2.7,0.0
CC(C)NC(=O)c1cc(-c2ccc(Cl)cc2)on1,-0.4,·
CCOC(=O)C1=C(c2ccccc2)NC(=S)NC1CC (stereo unspecified),5.8,-0.2
CC(=O)N1C(=S)NC(=O)/C1=C/c1c(Cl)cccc1Cl,-2.8,0.6
O=C(O)c1cc([N+](=O)[O-])ccc1NCCCc1ccccc1,9.8,-4.8
CCc1ccc(NC(=O)Cn2cc3c(n2)CCCC3)cc1,3.7,-0.9
C[C@@H]1CN([C@@H](C)CO)C(=O)c2cccc(NC(=O)NC3CCCCC3)c2O[C@@H]1CN(C)C(=O)Nc1ccccc1,0.8,·
C[C@@H]1CN([C@@H](C)CO)C(=O)c2cc(NS(=O)(=O)c3cccs3)ccc2O[C@H]1CN(C)Cc1ccccc1,-1.2,0.8
C[C@H]1CN([C@@H](C)CO)C(=O)c2cccc(NC(=O)Nc3ccc(C(F)(F)F)cc3)c2O[C@@H]1CN(C)C,0.7,·
COc1cc(CNC2C3CC4CC(C3)CC2C4)ccc1OCc1cccs1 (stereo unspecified),11.3,-1.9
CCN(CC)C(=O)CSc1ncnc2c1nnn2Cc1ccc(F)cc1,2.0,-1.6
Cc1ccc(NC(=O)CN2C(=O)/C(=C\c3ccccc3)SC2=S)cc1,0.6,0.2
Oc1ccc(Br)cc1/C=N/n1cnnc1,-1.9,0.5
C[C@@H]1CN([C@H](C)CO)C(=O)c2cccc(NC(=O)Nc3ccc(C(F)(F)F)cc3)c2O[C@@H]1CN(C)C(=O)Nc1ccccc1,3.5,·
C[C@H]1CN([C@@H](C)CO)C(=O)c2cc(NS(=O)(=O)c3ccc(Cl)cc3)ccc2O[C@@H]1CN(C)S(=O)(=O)c1ccc(Cl)cc1,1.5,0.5
Cc1ccccc1NC(=O)Nc1ccc(OCc2ccccc2)cc1,13.6,-5.4
C[C@@H]1CN([C@H](C)CO)C(=O)c2cccc(NC(=O)NC3CCCCC3)c2O[C@H]1CN(C)S(=O)(=O)c1cccs1,-2.2,·
Cc1cccc(Cc2c(C)c3c(C)[nH]nc3oc2=O)c1,-2.7,0.4
C[C@H](CO)N1C[C@H](C)[C@H](CN(C)Cc2ccc(-c3ccccc3)cc2)Oc2c(NS(=O)(=O)c3ccc(Cl)cc3)cccc2C1=O,-2.7,·
CC(=O)Nc1ccc(C(=O)CSc2nc(C)cc(=O)[nH]2)cc1,4.5,-0.2
CCCC1c2ccsc2CCN1C(=O)c1ccc(Cl)cc1 (stereo unspecified),4.0,0.1
C[C@H](CO)N1C[C@H](C)[C@@H](CN(C)C(=O)Nc2ccccc2)Oc2c(NC(=O)C3CCCCC3)cccc2C1=O,1.2,·

# The list goes on:
SMILES,BJeLR viab HTS,A1 inh
C[C@@H]1CN([C@@H](C)CO)C(=O)c2cccc(NS(=O)(=O)c3ccc(F)cc3)c2O[C@H]1CN(C)Cc1ccc(C(F)(F)F)cc1,-5.1,·
CC(=O)Nc1ccc(NC(=O)NC2(c3ccccc3)CC2)cc1,1.5,0.5
COc1ccc(-n2nc3ccc(NC(=O)CSc4ccc(Cl)cc4)cc3n2)cc1,5.0,5.0
COc1ccc(C2C(C(=O)Nc3cccc(C)n3)c3ccccc3C(=O)N2c2ccc(OC)cc2)cc1 (stereo unspecified),6.1,·
CC(C)NC(=O)Nc1cccc2c1O[C@H](CN(C)Cc1ccc3c(c1)OCO3)[C@H](C)CN([C@@H](C)CO)C2=O,5.3,·
C[C@@H]1CN([C@@H](C)CO)C(=O)c2cc(NS(C)(=O)=O)ccc2O[C@H]1CN(C)S(=O)(=O)c1cn(C)cn1,-0.1,0.0
C[C@H](CO)N1C[C@H](C)[C@H](CN(C)S(=O)(=O)c2cccs2)Oc2ccc(NS(=O)(=O)c3ccc(F)cc3)cc2C1=O,3.2,0.7
CCOC(=O)C1C(=O)C=C(c2cccc(OC)c2)CC1c1ccc(CC)cc1 (stereo unspecified),3.1,·
CN(C)S(=O)(=O)N1CCN(c2ccccc2)CC1,3.6,1.9
CC(C)NC(=O)N(C)C[C@@H]1Oc2c(NC(=O)Nc3ccc4c(c3)OCO4)cccc2C(=O)N([C@@H](C)CO)C[C@H]1C,-1.9,·
CC(C)NC(=O)Nc1cccc2c1O[C@H](CN(C)S(=O)(=O)c1ccc(Cl)cc1)[C@H](C)CN([C@H](C)CO)C2=O,-3.5,·
C[C@H]1CN([C@@H](C)CO)C(=O)c2cccc(NC(=O)Nc3ccc(C(F)(F)F)cc3)c2O[C@@H]1CN(C)Cc1ccc(Oc2ccccc2)cc1,5.6,·
CC(CNc1ccccc1)C(=Nc1ccccc1)Nc1ccccc1 (stereo unspecified),1.8,·
Cc1noc(C)c1NC(=O)N(C)C[C@@H]1Oc2ccc(NC(=O)CCN3CCOCC3)cc2C(=O)N([C@@H](C)CO)C[C@H]1C,-2.1,0.6
C[C@H]1CN([C@@H](C)CO)C(=O)c2cccc(NC(=O)c3nc4ccccc4s3)c2O[C@@H]1CN(C)S(=O)(=O)c1cccs1,2.8,·
C[C@@H]1CN([C@@H](C)CO)C(=O)c2cc(NC(=O)Nc3ccc4c(c3)OCO4)ccc2O[C@@H]1CN(C)Cc1ccncc1,3.1,0.2
C[C@H]1CN([C@@H](C)CO)C(=O)c2cc(NC(=O)C3CC3)ccc2O[C@@H]1CN(C)C(=O)NC1CCCCC1,1.4,-0.5
C[C@@H]1CN([C@H](C)CO)C(=O)c2cccc(NC(=O)c3ccncc3)c2O[C@H]1CN(C)S(=O)(=O)c1cn(C)cn1,1.0,·
C[C@H]1CN([C@@H](C)CO)C(=O)c2cccc(NC(=O)C3CC3)c2O[C@@H]1CN(C)S(=O)(=O)c1cccs1,1.2,·
C[C@H]1CN([C@@H](C)CO)C(=O)c2cc(NC(=O)Cc3ccccc3)ccc2O[C@H]1CN(C)S(=O)(=O)c1ccccc1,-3.5,0.8
CC(=O)N1c2ccc(S(=O)(=O)N3CCc4ccccc43)cc2CC1C (stereo unspecified),6.2,·
C[C@@H]1O[C@@H](Oc2ccc(-c3coc4cc(O[C@@H]5O[C@@H](C)[C@H](O)[C@@H](O)[C@H]5O)cc(O)c4c3=O)cc2)[C@H](O)[C@H](O)[C@H]1O,-5.2,-0.1
CC(C)NC(=O)Nc1ccc2c(c1)C(=O)N([C@@H](C)CO)C[C@@H](C)[C@H](CN(C)S(C)(=O)=O)O2,2.0,-0.5
O=C(c1cccs1)N1c2ccccc2Sc2ccccc21,-1.0,-0.2
COc1ccc(NC(=O)N(C)C[C@H]2Oc3ccc(NC(=O)CCC(F)(F)F)cc3C(=O)N([C@@H](C)CO)C[C@@H]2C)cc1,-3.1,0.7

# 4 entries picked at random from the list so far:
SMILES,BJeLR viab HTS,A1 inh
C[C@H](CO)N1C[C@H](C)[C@H](CN(C)S(=O)(=O)c2cccs2)Oc2ccc(NS(=O)(=O)c3ccc(F)cc3)cc2C1=O,3.2,0.7
CC(=O)Nc1ccc(C(=O)CSc2nc(C)cc(=O)[nH]2)cc1,4.5,-0.2
C[C@H]1CN([C@@H](C)CO)C(=O)c2cc(NC(=O)C3CC3)ccc2O[C@@H]1CN(C)C(=O)NC1CCCCC1,1.4,-0.5
CC(C)NC(=O)N(C)C[C@@H]1Oc2c(NC(=O)Nc3ccc4c(c3)OCO4)cccc2C(=O)N([C@@H](C)CO)C[C@H]1C,-1.9,·

# (list continues)
SMILES,BJeLR viab HTS,A1 inh
COc1cc2cc(Oc3ccc4ccc(=O)oc4c3)c(=O)oc2cc1OC(C)=O,-1.0,2.9
CCOc1ccc2nc(NC(=O)C3(S(=O)(=O)c4ccc(C)cc4)CC3)sc2c1,-5.8,·
CNC[C@@H]1Oc2c(NC(=O)Nc3ccc4c(c3)OCO4)cccc2C(=O)N([C@@H](C)CO)C[C@@H]1C,-2.4,·
CCCOc1ccc(C2C3=C(CCCC3=O)OC3=C2C(=O)CCC3)cc1OCC,-6.6,-0.8
C[C@@H]1CN([C@H](C)CO)C(=O)c2cc(NC(=O)CCCCCC(=O)Nc3ccccc3N)ccc2O[C@H]1CN(C)S(=O)(=O)c1ccc(F)cc1,-8.1,·
COC(=O)c1ccc(OC)c(Br)c1,-6.4,0.3
O=C(NCCCN1CCCC1)c1cc(-c2ccncc2)nc2ccccc12,3.5,0.0
Cc1nnn(C23CC4CC(CC(C(=O)NC5CCCCCC5)(C4)C2)C3)n1,-1.6,·
CC1C(c2ccccc2)O/C(=N\S(=O)(=O)c2ccc(Cl)cc2)N1C (stereo unspecified),4.5,0.4
CCCN(CCC)S(=O)(=O)c1ccc(C(=O)Nc2ccc3sc(SC)nc3c2)cc1,9.1,-0.1
C[C@H](CO)N1C[C@H](C)[C@H](CN(C)S(=O)(=O)c2cccs2)Oc2ccc(NC(=O)C3CC3)cc2C1=O,1.5,-1.0
CC1CCC(NC(=O)c2ccc(CSc3nc4ccncc4[nH]3)cc2)CC1 (stereo unspecified),3.9,-0.6
CCCC(=O)N1CCN(c2nc(Cc3ccccc3)c3c(c2C#N)CC(C)(C)OC3)CC1,-3.7,-0.4
COc1ccc(NC(=O)N(C)C[C@@H]2Oc3c(NC(=O)Nc4ccccc4)cccc3C(=O)N([C@@H](C)CO)C[C@H]2C)cc1,-7.8,·
C[C@@H]1CN([C@@H](C)CO)C(=O)c2cc(NC(=O)Nc3cccc4ccccc34)ccc2O[C@H]1CN(C)S(=O)(=O)c1ccc(F)cc1,-0.6,0.1
COc1c(C2OCC(OC(C)=O)C(OC(C)=O)C2OC(C)=O)c(O)cc2oc(-c3ccc(OC4OC(CO)C(O)C(O)C4O)cc3)cc(=O)c12 (stereo unspecified),-5.0,0.4
C[C@H]1CN([C@@H](C)CO)C(=O)c2cc(NC(=O)CCCCCC(=O)Nc3ccccc3N)ccc2O[C@H]1CN(C)C(=O)NC1CCCCC1,-9.1,·
O=C(CCC1CCCCC1)Nc1ccc(S(=O)(=O)Nc2ncccn2)cc1,-0.7,0.0
C[C@@H]1CN([C@@H](C)CO)C(=O)c2cc(NC(=O)Nc3cccc4ccccc34)ccc2O[C@H]1CN(C)S(=O)(=O)c1ccccc1,5.2,-0.1
C[C@@H]1CN([C@H](C)CO)C(=O)c2cccc(NC(=O)c3ccncc3)c2O[C@@H]1CN(C)Cc1ccccc1,3.3,·
CCNC(=S)N1CCN(CCN=CC2=C(O)CC(c3ccccc3)CC2=O)CC1 (stereo unspecified),-4.8,0.2
O=C(CN1C(=O)C2C3C=CC(C3)C2C1=O)NCCN1CCCc2ccccc21 (stereo unspecified),4.2,·
CC1=CN2C(=N)/C(=C/c3cc(C)n(Cc4ccccc4)c3C)C(=O)N=C2S1,-5.6,0.7
OCCN=c1cc(-c2ccccc2)oc2ccc(Cl)cc12,-0.5,0.6
O=S(=O)(Cc1nc(-c2ccccc2Cl)cs1)c1cccs1,-2.1,1.0

# Next results follow.
SMILES,BJeLR viab HTS,A1 inh
C[C@@H]1CN([C@@H](C)CO)C(=O)c2cc(NC(=O)Nc3cccc4ccccc34)ccc2O[C@H]1CN(C)C,0.8,0.5
CC(C)(C#CC(O)(c1ccccc1)c1ccccc1)N1CCCCC1,-0.3,0.6
Cn1c(SCC(=O)c2ccc3c(c2)OCCO3)nnc1-c1ccc2ccccc2c1,-0.7,·
Cc1ccc(NC(=O)CNS(=O)(=O)c2ccccc2)c(C(=O)c2ccccc2)c1,-6.7,-0.2
COC1OC(=O)C(CCC2(C)C(C)CCC3(C)C2CC(O)C(O)C32CO2)C1O (stereo unspecified),-3.7,0.8
CC(C)NC(=O)N(C)C[C@@H]1Oc2ccc(NC(=O)CCCN(C)C)cc2C(=O)N([C@H](C)CO)C[C@@H]1C,0.1,1.3
C[C@@H]1CN([C@H](C)CO)C(=O)c2cccc(NS(=O)(=O)c3ccc(Cl)cc3)c2O[C@@H]1CN(C)Cc1ccc(Cl)c(Cl)c1,-7.0,·
CCOc1cc2[nH]c(=O)n(Cc3cccc(OC)c3)c(=O)c2cc1OCC,2.4,0.6
CN(C(=O)Cn1c(=O)n(CCCCC(=O)NC2CCCC2)c(=O)c2ccccc21)C1CCCCC1,0.2,·
CCCCCC(=O)Cc1cc(O)c(O)c2c1C(=O)Oc1cc(O)c(C(=O)O)c(CCCCC)c1O2,99.1*,0.6
O=S(=O)(/N=C1\SCCN1S(=O)(=O)c1ccc(Cl)cc1)c1ccc(Cl)cc1,1.2,-0.5
C[C@H](CO)N1C[C@H](C)[C@@H](CN(C)Cc2ccc(C(F)(F)F)cc2)Oc2c(NC(=O)c3nc4ccccc4s3)cccc2C1=O,-2.1,·

# Four structures already listed, sorted by formula weight, high to low.
SMILES,BJeLR viab HTS,A1 inh
C[C@@H]1CN([C@H](C)CO)C(=O)c2cccc(NS(=O)(=O)c3ccc(Cl)cc3)c2O[C@@H]1CN(C)Cc1ccc(Cl)c(Cl)c1,-7.0,·
C[C@H](CO)N1C[C@H](C)[C@@H](CN(C)Cc2ccc(C(F)(F)F)cc2)Oc2c(NC(=O)c3nc4ccccc4s3)cccc2C1=O,-2.1,·
Cc1ccc(NC(=O)CNS(=O)(=O)c2ccccc2)c(C(=O)c2ccccc2)c1,-6.7,-0.2
CCOc1cc2[nH]c(=O)n(Cc3cccc(OC)c3)c(=O)c2cc1OCC,2.4,0.6

# Not all compounds are listed; the hit share may differ from the screen's.
